GIV-Gai inh – inhibitors of GIV peptide binding to Galpha-i3, primary screen, biochemical, fluorescence polarization, FITC-GIV GBA peptide, rat Galphai3. AID 1224905, 2016. Guanine nucleotide-binding protein G(i) subunit alpha-3 (Rattus norvegicus), P08753. actives 0.42% (n = 210,000). 90 min; stronger effect = lower value; scaled: aluminum fluoride 0%, vehicle 100%. percent of control (FP), % (test concentration not listed);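 active = replicate mean at 85% of control or lower, very high polarization wells dropped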;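 note: wells of about 15 µL received 100 nL stock; the first replicate is given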
Target sequence (P08753 whole entry, looked up): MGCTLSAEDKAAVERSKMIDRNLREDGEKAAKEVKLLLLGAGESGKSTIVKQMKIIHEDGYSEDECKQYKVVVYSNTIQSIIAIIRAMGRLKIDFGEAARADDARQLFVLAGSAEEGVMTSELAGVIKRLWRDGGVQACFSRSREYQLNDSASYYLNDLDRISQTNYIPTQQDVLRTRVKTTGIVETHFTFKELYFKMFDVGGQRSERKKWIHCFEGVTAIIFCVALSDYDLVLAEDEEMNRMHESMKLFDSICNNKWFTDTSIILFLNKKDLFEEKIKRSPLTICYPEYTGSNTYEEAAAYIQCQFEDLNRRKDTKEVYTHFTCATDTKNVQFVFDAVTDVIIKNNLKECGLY
* hit, by the source's call. The list is partial. The share of hits here may be higher or lower than overall.

No.	GIV-Gai inh	mol
1	100.0	CC(C)(C)c1[nH]nc2c1C1(C(=O)Nc3ccc(Br)cc31)C(C#N)=C(N)O2 (configuration not stated)
2	96.8	COc1ccc(C2CCCN(S(C)(=O)=O)C2)cc1 (configuration not stated)
3	105.6	COc1cc(C2NC(=O)c3c(sc4c3CCCC4)N2)cc(Br)c1OC (configuration not stated)
4	109.4	Cc1ccc(N2CC(O)(c3ccccc3)[N+]3=C2SCCC3)cc1 (configuration not stated)
5	95.0	C=CCn1c(=O)c2sc(N(CC)CC)nc2n(CC(=O)Nc2cc(F)ccc2F)c1=O
6	105.6	Cc1cccc(N2CC(O)(c3ccc([N+](=O)[O-])cc3)[N+]3=C2SCCC3)c1C (configuration not stated)
7	101.6	CC(C)CNC(=O)N1CCCN(c2nc3cc(Br)ccc3n3cccc23)CC1
8	112.1	CC12c3ccccc3C(c3ccccc31)C1C(=O)N(c3ccc(Br)cc3[N+](=O)[O-])C(=O)C12 (configuration not stated)
9	113.7	CCc1nnc2ccc(NS(=O)(=O)c3cc(Cl)ccc3OC)nn12
10	119.5	COc1ccc(Br)cc1C1=N/C(=C\c2c(F)cccc2Cl)C(=O)O1
11	114.8	Cc1nc(N2CCN(c3ccccc3F)CC2)c2c3c(sc2n1)CCC3
12	108.1	CCN1CCN(c2ccc(C(=O)OC)cc2NC(=O)Cc2ccc(OC)c(OC)c2)CC1
13	100.9	O=C(Cn1cnc2ccccc2c1=O)NCC(=O)N1CCN(c2ccccc2)CC1
14	112.7	Cc1ccc(C)c(C(=O)CN2C3=NCCCN3c3ccccc32)c1
15	104.6	COc1ccc(-n2ncc3c(N4CCC(Cc5ccccc5)CC4)ncnc32)cc1
16	119.1	CC1CCN(c2cc(N3CCN(C(=O)c4ccccc4F)CC3)c([N+](=O)[O-])cc2F)CC1
17	107.5	CCNc1cc(C)nc(Nc2ccc(NS(=O)(=O)c3ccc(Cl)cc3)cc2)n1
18	95.2	O=C1CCCN1CCCNc1nc(-c2ccncc2)nc2c1CCC2
19	113.1	CCN(CC)c1ccc(C2CC(C)NC(=S)N2)cc1 (configuration not stated)
20	103.5	O=C(Nc1ccc(-c2noc(Cc3ccc(Cl)cc3)n2)cc1)c1cccs1
21	102.4	CCC(C)(C)NS(=O)(=O)c1ccc2c(c1)N(Cc1noc(C3CCC3)n1)C(=O)CO2
22	102.8	O=C(NC1CCCCC1)C1CCN(c2ncc(-c3ccccc3)cn2)CC1
23	183.0	O=C(O)c1cc(N2C(=O)/C(=C/c3ccc(-c4ccc(Cl)c(Cl)c4)o3)C=C2c2ccccc2)ccc1Cl
24	103.1	Cc1ccccc1-c1noc(CCc2nnc3ccc(N4CCN(c5ccccn5)CC4)nn23)n1
25	109.7	O=C(NCc1cccnc1)c1ccc2c(c1)[nH]c(=S)n1c3ccccc3nc21
26	105.9	COc1cc(-c2cc(C)no2)ccc1S(=O)(=O)Nc1cc(Cl)ccc1C
27	105.2	Cc1nn(-c2ccccc2)cc1C(=O)N1CCC(C(C)C(=O)NCCc2c[nH]c3ccccc23)CC1 (configuration not stated)
28	110.2	COc1ccc2ccccc2c1C1N(Cc2ccccc2)CCN1Cc1ccccc1
29	108.4	CN(CCc1noc(-c2ccc(C(=O)NCc3cccc(F)c3)cc2)n1)C(=O)c1ccc(Cl)cc1
30	105.4	Cn1c(=O)c2nc(SCCC(=O)Nc3ccc(F)cc3F)n(C)c2n(C)c1=O
31	98.5	Cc1csc(-c2csc(S(=O)(=O)NCCc3ccc(Cl)cc3)c2)n1
32	105.7	COc1ccccc1Nc1nc(NCc2ccco2)c2ccccc2n1
33	99.9	CC(C)C12CCC(C(=O)O)C(C1)C(=O)O2 (configuration not stated)
34	100.7	CCSc1nnc(-c2nn(C)c3c2CN(S(=O)(=O)c2ccc4c(c2)OCCO4)CC3)n1CC
35	101.8	N=C1S/C(=C\c2cc3c(cc2Cl)OCO3)C(=O)N1c1nccs1
36	111.2	O=C(CN1CCN(CCOCCO)CC1)N1c2ccccc2Sc2ccc(Cl)cc21
37	97.1	Cc1ccc(Nc2nc(Cl)nc(N3CCOCC3)n2)cc1Cl
38	107.0	CCCc1ccc(S(=O)(=O)N2CCCC(c3nnc(C(=O)Nc4ccc(F)cc4)s3)C2)cc1 (configuration not stated)
39	104.7	CCCCNC(=O)C1CCCN(c2cc(=O)n(C)c(=O)n2CC)C1 (configuration not stated)
40	104.3	COc1ccc(C(c2nnnn2C(c2ccccc2)c2ccccc2)N2CCOCC2)cc1 (configuration not stated)

Given with bars between the fields: part of the list above.
# | smiles | GIV-Gai inh
13 | O=C(Cn1cnc2ccccc2c1=O)NCC(=O)N1CCN(c2ccccc2)CC1 | 100.9
14 | Cc1ccc(C)c(C(=O)CN2C3=NCCCN3c3ccccc32)c1 | 112.7

The list continues:
No.	GIV-Gai inh	mol
41	111.2	CC1(C)CC(=O)C(C=NCCc2ccc(S(N)(=O)=O)cc2)=C(O)C1
42	100.3	CC1CCN(C(=O)C2CCc3sc(C(=O)N4CCCC4)cc3C2)CC1 (configuration not stated)
43	103.8	COc1cc(NC(=O)c2sc3ncn(CC(=O)Nc4cccc(C(F)(F)F)c4)c(=O)c3c2C)cc(OC)c1OC
44	97.8	COc1ccc(C2CC(=O)C3=C(C2)Nc2ccccc2NC3c2c[nH]c3ccccc23)cc1OC (configuration not stated)
45	110.3	CCOc1cc(C2C(C#N)=C(N)Oc3n[nH]c(-c4cc(OC)c(OC)c(OC)c4)c32)cc([N+](=O)[O-])c1O (configuration not stated)
46	104.5	COCCNC(=O)c1ccc2nc3[nH]c4ccccc4c3nc2c1
47	107.1	COc1cccc(N2CCN(C(=O)c3cnn4c(C(F)(F)F)cc(-c5ccc(OC)c(OC)c5)nc34)CC2)c1
48	97.0	Cc1noc(C)c1C1CCCN1C(=O)c1cccs1 (configuration not stated)
49	104.4	CC(C)(C)c1csc(-c2csc(S(=O)(=O)NCCN3CCc4ccccc4C3)c2)n1
50	105.6	CCN1CCN(C(=O)CC2CCN(S(=O)(=O)c3ccc(Cl)s3)CC2)CC1
51	105.8	CCc1cc(Sc2ccc(NS(=O)(=O)c3ccc(Cl)cc3)cc2)n2nc(C)nc2n1
52	99.5	O=C(c1ccc(N2C(=O)C3CC=CCC3C2=O)cc1)c1ccc(N2C(=O)C3CC=CCC3C2=O)cc1 (configuration not stated)
53	99.8	COc1ccc(-c2nc3c([nH]2)c(=O)n(C)c(=O)n3C)cc1OC
54	109.4	NS(=O)(=O)c1cccnc1N1CCSCC1
55	104.7	COc1ccccc1Oc1cc(-c2cccc(C(=O)NCc3ccc(F)cc3)c2)ncn1
56	101.1	CC(C)C(=O)NC1CCN(C(=O)C2CCCC2)C1 (configuration not stated)
57	99.7	Cc1ccn2cc(-c3ccc(S(=O)(=O)N4CCCCC4)cc3)nc2c1
58	132.1	Cc1ccc(-c2noc(-c3cn(CC(=O)Nc4ccc(C)cc4F)c4nc(C)ccc4c3=O)n2)cc1
59	104.1	CCCNC(=O)CN1c2ccccc2NC2=C(C(=O)CC(C)(C)C2)C1c1ccc(C)cc1 (configuration not stated)
60	102.0	O=C(Nc1ccc(Br)cc1)C1CC1(c1ccccc1)c1ccccc1 (configuration not stated)

A draw from above in order of molecular weight, lowest first:
No.	GIV-Gai inh	mol
41	111.2	CC1(C)CC(=O)C(C=NCCc2ccc(S(N)(=O)=O)cc2)=C(O)C1
60	102.0	O=C(Nc1ccc(Br)cc1)C1CC1(c1ccccc1)c1ccccc1 (configuration not stated)
43	103.8	COc1cc(NC(=O)c2sc3ncn(CC(=O)Nc4cccc(C(F)(F)F)c4)c(=O)c3c2C)cc(OC)c1OC

Remaining list, next part.
No.	GIV-Gai inh	mol
61	110.0	CC(C)(C)NS(=O)(=O)c1cc2c(c([N+](=O)[O-])c1)-c1c(cc(S(=O)(=O)NC(C)(C)C)cc1[N+](=O)[O-])C2=O
62	103.4	Cc1nn2c(S(=O)(=O)N3CCCCCC3)c(C)nc2s1
63	105.2	C=CCSC1=C(C#N)C(c2ccncc2)C(C(=O)Nc2ccc(Cl)cc2)=C(C)N1 (configuration not stated)
64	111.6	Cc1ccc(C(=O)NC(=S)C(C#N)=P(c2ccccc2)(c2ccccc2)c2ccccc2)cc1
65	101.5	Clc1ccc(-c2[nH]c(-c3cccc4ccccc34)nc2-c2ccccc2)cc1
66	107.4	CN(C)C1N(C(=O)c2cccc3ccccc23)N=C2c3ccccc3S(=O)(=O)N21 (configuration not stated)
67	102.1	CCOC(=O)C1CCC(CNC(=O)N2CCCC2c2cc(C(C)C)on2)CC1 (configuration not stated)
68	102.1	CC(=O)Nc1ccc(C(=O)N2CCC(C)CC2)o1
69	101.9	CN(C)S(=O)(=O)c1ccc(-c2noc(C(=O)NCc3ccc4c(c3)OCO4)n2)cc1
70	98.8	COC(=O)c1ccc(C2Nc3c(C)cc(C)cc3[C@H]3OCCC[C@@H]23)cc1 (some centres not stated)
71	114.9	COc1ccc(/C=C2\C=C(c3ccccc3)N(c3ccccc3)C2=O)cc1Br
72	124.0	COc1ccc(NC2=Nc3cccc4cccc2c34)cc1
73	107.7	COc1ccc(C(=O)Nc2cnc3oc(-c4ccc(Cl)cc4)nn3c2=O)cc1OC
74	112.5	CCOC(=O)c1c(CN2CCN(C)CC2)n(-c2ccccc2)c2cc(Br)c(OC)cc12
75	119.2	COC(=O)CCC/C=C1/SCC(NC(=O)c2ccccc2)C1O (configuration not stated)
76	101.8	CN1C(=O)c2ccccc2Sc2cc(-c3noc(C4CCC4)n3)ccc21
77	113.7	COC(=O)c1cccc(Nc2nc(-c3ccccc3)nc3ccccc23)c1
78	108.0	COc1ccc(NC(=O)c2cccc(-c3cc(Oc4ccccc4OC)ncn3)c2)cc1Cl
79	114.6	CC(=O)C1=NN(c2ccccc2)C2(CCC(c3ccccc3)=NN2c2ccccc2)S1 (configuration not stated)
80	101.0	COc1ccc(C(=O)OCCC2CCCCN2C2=NS(=O)(=O)c3ccccc32)c(OC)c1 (configuration not stated)
81	119.0	O=C1C(=O)N(c2nncs2)C(c2cccc(Br)c2)/C1=C(/O)c1ccc(F)cc1 (configuration not stated)
82	107.4	CC(C)(C)C1CCC2(CC1)NC(=S)N(c1ccccc1)N2 (configuration not stated)
83	101.4	CCCN1CCN(Cc2nc3nc(C)cc(N4CCC(C)CC4)n3n2)CC1
84	102.0	Cc1cc(C2CCCN2Cc2cc(Cl)ccc2O)on1 (configuration not stated)
85	110.8	Cc1nn(-c2cccc(F)c2)c2sc(C(=O)Oc3cccnc3)cc12
86	112.6	Cc1ccc(C2=CC(c3ccccc3)n3c(nc4ccccc43)N2)cc1 (configuration not stated)
87	103.4	O=S(=O)(c1cc(-c2noc(C3CC3)n2)cs1)N1CCN(c2ccccc2)CC1
88	99.6	CC(C)S(=O)(=O)N1CCCN(C(=O)C(C)(C)C)CC1
89	104.3	COc1cc(OC)c(NC(=O)c2sc3nc(C)nc(N4CCOCC4)c3c2C)cc1Cl
90	106.3	Cc1ccc(-c2nc(C(=O)N3CCCC3)cs2)n1C
91	101.1	O=C(NCc1ccco1)c1ccc2c(=O)n(CCc3c[nH]c4ccccc34)c(=S)[nH]c2c1
92	109.7	CCOC(=O)CSc1nc(NCCc2ccccc2)c2ccccc2n1
93	97.7	CN1C(=O)CSc2cnn(CC(=O)NCCC3=CCCCC3)c(=O)c21
94	109.7	CCOC(=O)C1=C(O)/C(=C/c2cc(OC)c(O)c(OC)c2)SC1=Nc1ccccc1
95	110.2	Cc1ccc(-n2c(=S)[nH]c3c(c2=O)C2(CCCCC2)Cc2ccccc2-3)cc1
96	115.5	CC(C)Oc1ccc(C2C(C(=O)C34CC5CC(CC(C5)C3)C4)N3c4ccccc4C=CC3C2(C#N)C#N)cc1 (configuration not stated)
97	101.9	Cc1ccccc1-n1c(SCC(=O)NCCc2ccc(S(N)(=O)=O)cc2)nc2n[nH]c(C)c2c1=N
98	99.7	CC(C)Oc1ccccc1C1CC(=O)Nc2c1cnn2-c1nc2ccccc2s1 (configuration not stated)
99	105.4	COC(=O)C1=C(C(=O)OC)SC(=C2C(=S)C(C)(C)N(C(=O)CCC3CCCCC3)c3ccc(OC)cc32)S1
100	106.7	Cc1ccc(S(=O)(=O)Nc2cc3c4c(oc3c3ccccc23)CC(C)(C)CC4=O)c(C)c1

7 entries out of the list above, ordered by the number in GIV-Gai inh, smallest number first:
# | SMILES | GIV-Gai inh
87 | O=S(=O)(c1cc(-c2noc(C3CC3)n2)cs1)N1CCN(c2ccccc2)CC1 | 103.4
89 | COc1cc(OC)c(NC(=O)c2sc3nc(C)nc(N4CCOCC4)c3c2C)cc1Cl | 104.3
90 | Cc1ccc(-c2nc(C(=O)N3CCCC3)cs2)n1C | 106.3
92 | CCOC(=O)CSc1nc(NCCc2ccccc2)c2ccccc2n1 | 109.7
86 | Cc1ccc(C2=CC(c3ccccc3)n3c(nc4ccccc43)N2)cc1 (configuration not stated) | 112.6
96 | CC(C)Oc1ccc(C2C(C(=O)C34CC5CC(CC(C5)C3)C4)N3c4ccccc4C=CC3C2(C#N)C#N)cc1 (configuration not stated) | 115.5
81 | O=C1C(=O)N(c2nncs2)C(c2cccc(Br)c2)/C1=C(/O)c1ccc(F)cc1 (configuration not stated) | 119.0

Next section.
No.	GIV-Gai inh	mol
101	102.9	Cc1nn(-c2nc3ccccc3[nH]2)c2c1C(c1ccc(Cl)cc1)CC(=O)N2 (configuration not stated)
102	101.7	CC(=O)N1C(=S)NC(=O)/C1=C/c1cc2cc(C)ccc2nc1N1CCCCC1
103	103.2	O=[N+]([O-])c1ccc(-c2nc3cc(Cc4ccc5nc(-c6ccccc6)c(-c6ccc([N+](=O)[O-])cc6)nc5c4)ccc3nc2-c2ccccc2)cc1
104	104.8	CCOc1ccc(NC(=O)N2CCC(N3CCN(Cc4ccc(F)cc4)C3=O)CC2)cc1
105	99.7	O=C1CC(c2cccc(F)c2)c2cnn(-c3nc4ccccc4s3)c2N1 (configuration not stated)
106	101.6	O=C1CN(Cc2ccccc2)S(=O)(=O)c2ccccc2N1Cc1ccccc1F
107	100.1	Cc1nn(-c2ccc3nnc(C)n3n2)c2c1C(c1cccc(F)c1F)CC(=O)N2 (configuration not stated)
108	101.6	O=C(COc1ccc(-c2cnc3ccccc3n2)cc1)NC1CCCCC1
109	106.1	CCOC(=O)C1=CN(Cc2ccc(F)cc2)C=C(C(=O)OCC)C1c1ccc(OC)c(Br)c1

From PubChem BioAssay
